Beta apoptosis = blocks beta cell apoptosis | protection from apoptosis, % (no concentration beside the values) | INS-1E cytokine-induced death, ATP luminescence, 48 h; percent of positive-control rescue, neutral wells zero | actives 0.8% (n = 300,000);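 active = all replicates at 75% or more, or half of them and the mean; inconclusive = half reach 75% but not the mean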;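 also: 0% = cytokine-treated negative control wells and 100% = positive control rescue; higher means more ATP so stronger rescue from cytokine killing; wells of about 40 µL received 100 nL stock; the first replicate is given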
Bfl-1 A1 inh = inhibitors of the anti-apoptotic protein A1, read as caspase activation; MEF A1-2A-BIM cells, Caspase-Glo 3/7 luminescence, 3 h; percent of clofoctol response, vehicle zero; caspase activation, % (no concentration beside the values); actives 0.066% (n = 330,000); AID 2462;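 active = over half of replicate activation scores above 10%, or exactly half above 10 with the replicate mean above 10; inconclusive = replicate mean below 10 yet half the replicates above 10; inactive = over half of replicates below 10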;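 also: wells of about 30 µL received 50 nL stock; many hits fall short of the cut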
RanGTP-Impb inh = inhibitors of RanGTP-importin-beta interaction, primary screen, biochemical, FRET, CFP-Ran, YFP-importin-beta, homogeneous | inhibition, % (concentration not given with the values) | actives 1.1% (n = 300,000) | cell-free CFP-Ran/YFP-importin-beta FRET ratio;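 active = most replicates above 15%; inconclusive = exactly half above 15%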;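 also: 0% = DMSO wells and 100% = Ran loaded with GDP instead of GTP; wells of about 40 µL received 100 nL stock; the first replicate is given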
Vif TR-FRET = HIV-1 Vif–A3G interaction blockers – biochemical, TR-FRET, GST-Vif 1-94, biotin-A3G peptide, dose response retest, primary screen (AID 1117319). TR-FRET GST-Vif / biotin-A3G peptide binding; higher % means a stronger effect; test concentration not given here; strong numbers were not always called active. inhibition, %, or IC50 in µM where a hit was titrated. actives 0.57% (n = 260,000);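 active = above the screen mean plus three standard deviations and confirmed in dose response; inconclusive = results disagree or hit not tested in dose response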;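 also: Vif residues 1-94 fused to GST binding biotinylated APOBEC3G peptide 110-148; 0% = full assay without inhibitor and 100% = GST in place of GST-Vif; retest series ran down from 100 µM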
T cruzi repl = blocks replication of Trypanosoma cruzi. inhibition, % (no concentration beside the values). T. cruzi beta-gal in NIH3T3, luminescence, 90 h. actives 1.4% (n = 300,000);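 active = mean inhibition across valid replicates above about 55%, limit read from the data; inconclusive = mean below that limit but half or more replicates reach it; inactive = mean below it, under half of replicates reach it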;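 also: signal also drops with host cell toxicity which is not excluded here; 0% = plate median of DMSO wells and 100% = zero luminescence signal; higher percent means less beta-gal luminescence so fewer parasites; stock transfer was 50 nL into about 50 µL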
AF4-AF9 inh = blocks AF4 peptide binding to human AF9 | P42568 | AlphaScreen, biotin-AF4 peptide binding to FLAG-AF9 | inhibition, % at 10 µM | actives 0.47% (n = 350,000) | AID 651704;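 active = every replicate reaching a set inhibition limit, whatever the replicate mean, cut at about 25% in these data; inconclusive = mean inhibition reaches that limit but some replicates miss it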;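 also: 0% = plate neutral control median and 100% = total signal loss; the record names both 10 and 1 µM as test concentration; the first replicate is given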
Target sequence (P42568 whole entry, looked up): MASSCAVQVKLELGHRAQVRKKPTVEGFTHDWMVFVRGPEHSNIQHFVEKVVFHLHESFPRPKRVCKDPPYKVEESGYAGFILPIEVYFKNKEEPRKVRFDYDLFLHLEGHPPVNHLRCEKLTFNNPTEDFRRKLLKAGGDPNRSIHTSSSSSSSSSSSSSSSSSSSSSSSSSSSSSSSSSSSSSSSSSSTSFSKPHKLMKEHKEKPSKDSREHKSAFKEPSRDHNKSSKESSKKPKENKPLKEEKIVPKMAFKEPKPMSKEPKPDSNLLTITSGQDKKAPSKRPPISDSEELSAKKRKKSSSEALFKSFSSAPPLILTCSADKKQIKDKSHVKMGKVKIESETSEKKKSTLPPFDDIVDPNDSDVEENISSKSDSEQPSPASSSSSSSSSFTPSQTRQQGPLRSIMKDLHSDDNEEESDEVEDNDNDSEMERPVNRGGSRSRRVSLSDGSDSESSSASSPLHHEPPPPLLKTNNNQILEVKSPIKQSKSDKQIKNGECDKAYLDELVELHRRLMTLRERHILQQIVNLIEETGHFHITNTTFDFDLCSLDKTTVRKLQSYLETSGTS
Calb FLC = C. albicans growth modulation with fluconazole | actives 0.57% (n = 300,000) | growth inhibition, % (concentration not given with the values) | C. albicans CaCi-2 (fluconazole-resistant clinical isolate) + fluconazole, Alamar Blue growth, 48 h | AID 1979;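 active = most replicates above 75%; inconclusive = exactly half above 75%; inactive = most below 75%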;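 also: all wells also contain fluconazole at 8 µg/ml as a sub-toxic cotreatment; 0% = median of DMSO wells and 100% = median of geldanamycin control wells; wells of about 8 µL received 7.5 nL stock; the first replicate is given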
Ecoli rRNA inh = inhibitors of bacterial rRNA selective over humanized ribosomes; E. coli WT GFP vs humanized-ribosome RFP mutants, fluorescence, 24 h; hits give low values; DMSO median 0, no signal -100; GFP signal change (wild-type ribosome), % (concentration not given with the values); actives 1.6% (n = 350,000);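 active = significant combined selectivity score with lowered wild-type GFP, culture density cut under 30%, mutant RFP and density less affected; inactive = any of these conditions unmet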; also: one replicate is shown; some compounds called inactive have numbers as strong as hits
Ecoli rRNA inh OD600 = second read-out of Ecoli rRNA inh, no call of its own (marks repeat the call); OD600 change, %; measured here: OD600 growth;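 optical density of the mix in the first replicate; 0 = DMSO median and -100 = no signal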
Ecoli rRNA inh RFP = second read-out of Ecoli rRNA inh, no call of its own (marks repeat the call); RFP signal change, %; measured here: RFP humanized mutant strains;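 first replicate; 0 = DMSO median and -100 = no signal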
Starred values were filed as active, the others as inactive; ? = inconclusive; . = not tested or not shown; & = joins results of further samples. This is a subset; count on the stated rates, not on these rows.

SMILES | Beta apoptosis | Bfl-1 A1 inh | RanGTP-Impb inh | Vif TR-FRET | T cruzi repl | AF4-AF9 inh | Calb FLC | Ecoli rRNA inh | Ecoli rRNA inh OD600 | Ecoli rRNA inh RFP
Cc1ccc(-c2nc3ccccc3c(=O)n2CCCN2CCOCC2)cc1 | . | 0.3 | -0.9 | -1% | -3 | . | -1 | . | . | .
CCC(C)c1ccc(-c2cc(C(=O)OCC(=O)Nc3cc(C)on3)c3ccccc3n2)cc1 (stereo unspecified) | 3 | -3.5 | 2.1 | 1% | 5 | . | 2 | . | . | .
CCC(=O)N1CCCc2cc(S(=O)(=O)NCc3cccs3)ccc21 | -7 | -0.8 | -0.9 | 11% | -9 | . | 1 | . | . | .
CN(C)CCNC(=O)C(C(=O)c1ccccc1)n1ccccc1=O (stereo unspecified) | -6 | 0.3 | 2.0 | -4% | -2 | . | -1 | . | . | .
CC(Sc1ccc(Br)cc1)C(N)=O (stereo unspecified) | -5 | -0.6 | -3.4 | -1% | -11 | . | -16 | . | . | .
Cc1ncc(CC(=O)n2cc(C(=O)c3cc(F)ccc3O)cn2)s1 | -11 | 0.2 | ? | 3% | -4 | . | 7 | . | . | .
COc1sc(SC)cc1/C=N/NC(=O)c1ccncc1 | 3 | 0.7 | 1.7 | . | 2 | -1.6 | -2 | 1 | 1 | -1.4
N#Cc1c(Cl)nsc1NN | 22 | -0.2 | -0.5 | -6% | -3 | 51* | 52 | -7 | -15 | 0.6
NC(=O)c1ccccc1O | -3 | -1.3 | 2.2 | 0% | -11 | 1.1 | . | 7 | 10 | 0.5
CCOc1ccccc1N1CC(C(=O)N(Cc2nnc(-c3ccccc3Cl)o2)C2CC2)CC1=O (stereo unspecified) | 2 | 0.4 | 2.0 | -2% | 5 | -14 | -2 | 0 | 2 | 1.0
C[C@H](NC(=O)C1CC(=O)N(c2ccc3c(c2)OCCO3)C1)C(=O)N1CCC(C(=O)O)CC1 (stereo partly specified) | 2 | 0.1 | 3.8 | . | -9 | -2.4 | 1 | 3 | 6 | 0.6
COc1cccc(CN(C)c2nc(-c3cccs3)nc3ccccc23)c1 | 11 | 0.4 | 4.0 | . | 9 | 0.6 | 12 | . | . | .
O=C(CSc1n[nH]c(-c2ccncc2)n1)Nc1ccc(Br)cc1 | 11 | -0.2 | -3.6 | . | -7 | 1.6 | 2 | -17 | -21 | -2.0
O=C(NCCC1=CCCCC1)C(=O)c1c[nH]c2ccccc12 | . | -0.3 | 6.0 | . | 10 | . | 9 | . | . | .
Cc1cc(NC(=O)CSc2nc3cc(Cl)ccc3c(=O)n2Cc2ccco2)no1 | 24 | 30* | 4.8 | 3% | -26 | -1.3 | 12 | . | . | .
Cc1ccc(-n2nc(C)c(=O)c(-c3ccccc3)c2NC(=O)C(C)C)cc1 | -1 | -0.3 | -2.0 | -4% | -1 | -3.7 | -3 | 14 | 16 | -1.0
COc1ccc(C(=O)COC(=O)C2CCC(=O)N2)cc1 (stereo unspecified) | -6 | ? | 2.9 | 2% | -11 | 0.5 | 1 | 25 | 25 | 4.0
O=C(Cc1ccc(Br)cc1)N1CCN(c2ccccc2)CC1 | 2 | 0.5 | -2.9 | 12% | 1 | . | 5 | . | . | .
COC(=O)/C=C1\SC(=NC(=O)c2ccc(OC)cc2)NC1=O | 2 | 0.1 | 6.4 | 0% | -6 | -3.6 | 4 | -3 | -4 | -0.3
COc1ccc(S(=O)(=O)N/N=c2\oc3c(OC)cccc3cc2S(=O)(=O)c2ccc(C)cc2)cc1OC | -10 | 0.0 | 0.2 | -3% | 3 | 2.1 | ? | 3 | 2 | -2.2
CCC(=O)Nc1cccc2cccnc12 | -2 | 0.4 | 3.9 | -10% | -20 | -0.7 | 10 | 9 | 8 | -1.9
CCOc1ccccc1C1C2CCCCC2(O)CCN1C(=O)c1cccs1 (stereo unspecified) | -1 | -0.9 | 4.7 | . | -5 | . | -3 | . | . | .
O=C1S/C(=C/c2ccc(N3CCOCC3)o2)C(=O)N1Cc1c(F)cccc1Cl | 11 | -0.8 | -3.5 | -1% | 36 | . | -8 | . | . | .
O=C(Nc1cc(S(=O)(=O)Nc2ccccc2Cl)ccc1O)c1sc2cc(Cl)ccc2c1Cl | 1 | -0.1 | 4.1 | ? | 6 | . | -6 | . | . | .
CC(CC(=O)N1CCc2ccccc21)c1ccccc1 (stereo unspecified) | . | -0.6 | 1.0 | 0% | 5 | . | -1 | . | . | .

Remaining list, next part.
SMILES | Beta apoptosis | Bfl-1 A1 inh | RanGTP-Impb inh | Vif TR-FRET | T cruzi repl | AF4-AF9 inh | Calb FLC | Ecoli rRNA inh | Ecoli rRNA inh OD600 | Ecoli rRNA inh RFP
O=C(c1cccs1)N(Cc1cc2ccccc2[nH]c1=O)CC1CCCO1 (stereo unspecified) | -2 | 0.6 | 1.8 | . | 4 | 1.3 | -7 | 0 | -2 | -1.3
CC(=O)N1C(Nc2ccc(Cl)cc2)CCN1c1ccccc1 (stereo unspecified) | -8 | -1.7 | 8.3 | -2% | -7 | . | -2 | . | . | .
COc1ccc(N2CCN(CC(O)COc3ccc(C)cc3C)CC2)cc1 (stereo unspecified) | -3 | -0.4 | 1.5 | . | 11 | 11 | -14 | -7 | -6 | -4.1
CCC(C)(C)C1CCc2nc3ccccc3c(C(=O)OC(C)C(=O)Nc3c(C)n(C)n(-c4ccccc4)c3=O)c2C1 (stereo unspecified) | 0 | 0.8 | 1.4 | -10% | 32 | 0.6 | -7 | . | . | .
COc1ccc(C(=O)c2cn(-c3cccc(Br)c3)nc2C(C)=O)cc1 | 5 | 1.0 | -3.8 | . | 21 | -1.1 | -20 | 11 | 19 | 0.0
COc1ccc(CCNC(=O)c2ccc(CSc3ccccc3)o2)cc1 | -7 | 1.0 | 4.7 | 13% | 2 | -3.8 | 30 | -37* | -16* | -4.1*
Cc1ccc(/C=C2\SC(=S)N(c3cccnc3)C2=O)o1 | -6 | 0.5 | 4.6 | 6.9µM* | 62* | -0.2 | -1 | 13 | 9 | 4.5
COc1ccc(NC(=O)CSc2ncnc3c2cnn3CCc2ccccc2)cc1 | 9 | 0.5 | -0.2 | 9% | -7 | . | -7 | . | . | .
O=S(=O)(NCCc1cn2ccccc2n1)c1ccc2c(c1)OCCO2 | -13 | -0.2 | 3.2 | -3% | -18 | -1.1 | -2 | 1 | 4 | -3.5
CCc1ccc(N2CC(C(=O)Nc3cccnc3)CC2=O)cc1 (stereo unspecified) | . | -0.1 | 4.4 | 1% | -7 | . | -5 | . | . | .
CNC(=O)c1ccc(NC(=O)CCc2c(C)noc2C)cc1 | 3 | 0.7 | . | -12% | . | 1.2 | . | 3 | 13 | -2.4
Cc1sc(NC(=O)c2ccccc2)c(C(=O)NC(C)C)c1C | -1 | 0.1 | 5.1 | 0% | -15 | -0.8 | 15 | 13 | 9 | 2.2
CCOc1ccc(C2C(C(=O)c3ccco3)=C(O)C(=O)N2CCCn2ccnc2)cc1OCC (stereo unspecified) | -7 | -0.6 | 4.1 | . | -2 | 2.3 | 1 | 7 | 3 | 0.9
Cc1nc2sc3c(=O)[nH]nnc3c2c(C)c1Br | -8 | 0.6 | 2.4 | 5% | 6 | -2.8 | 42 | -23 | -42 | -12
COc1ccc(OC(=O)c2ccc3nsnc3c2)cc1 | 5 | 0.5 | 1.9 | 12% | 2 | . | -8 | . | . | .
O=C(Nc1cccc(C(F)(F)F)c1)N1CCC(c2nc(-c3ccc(F)cc3)no2)CC1 | 30 | -1.2 | -0.9 | 5%&-8% | 53 | . | -7 | -5 | -12 | 6.9
CC(=O)NCCn1c(SCC(=O)NCCC2=CCCCC2)nc2ccccc2c1=O | 1 | 0.3 | 2.8 | 3% | -8 | . | -11 | . | . | .
CC(C)C12CN3CC(C(C)C)(CN(C1)C3c1ccc([N+](=O)[O-])o1)C2=O (stereo unspecified) | -3 | 1.5 | -4.5 | ? | 52 | -3.6 | 0 | 3 | -4 | 11
COCCn1c(C(=O)N2CCCC2)cc2c1C[C@H]1CN(C(=O)c3ccccc3)[C@@](Cc3ccc(F)cc3)(C(=O)OC)[C@@H]21 | -8 | 0.6 | . | 7% | . | 6.2 | . | -2 | 2 | -0.1
CSc1ncccc1C(=O)NC1CCCc2c1cnn2-c1ccc(C)c(C)c1 (stereo unspecified) | -1 | 1.1 | 4.6 | 3% | 10 | -2.8 | -20 | 6 | 15 | 1.0
COc1ccccc1C1CCN(C(=O)c2cnn(-c3ccccc3)c2C)CC1 | 2 | -0.3 | 3.0 | 1% | 7 | 1.0 | 3 | -18 | -37 | -0.3
O=S(=O)(c1ccccc1)c1nc(-c2ccco2)oc1NCCCn1ccnc1 | -4 | -0.2 | 6.1 | 5% | 7 | . | -5 | . | . | .
Cc1ccc(NS(=O)(=O)c2ccc(Cl)c(N=Nc3c(O)[nH]c(=O)[nH]c3=O)c2)cc1Cl | -7 | 0.4 | . | . | . | -0.5 | . | -3 | 11 | 1.5
CCCc1cc(C(=O)Nc2ccc(C(C)=O)cc2)no1 | 0 | -0.2 | 5.1 | 9% | -4 | -9.6 | -4 | -1 | 13 | -5.2
Cc1ccc(C(=O)Nc2cccc(C(=O)N3CCOCC3)c2)cc1 | -6 | -0.6 | 6.6 | 9% | -13 | . | ? | . | . | .
COc1ccc(S(=O)(=O)Nc2ccc3c(c2)C(=O)N([C@H](C)CO)C[C@H](C)[C@@H](CN(C)C(=O)NC2CCCCC2)O3)cc1 | -2 | -0.7 | . | . | . | -2.7&-3.9 | . | 3&3 | 4&11 | -2.4&6.7
CSc1oc(-c2ccccc2)nc1C(N)=O | -5 | 0.3 | -2.3 | -8% | -4 | . | 31 | . | . | .
CCN(CC)C(=O)CCS(=O)(=O)c1cccc2nonc12 | 2 | 0.2 | . | 6% | . | 4.2 | 1 | 0 | 10 | -0.9

One compound at a time (already shown):
Profile of COc1cccc(CN(C)c2nc(-c3cccs3)nc3ccccc23)c1 : Beta apoptosis: 11; Bfl-1 A1 inh: 0.4; RanGTP-Impb inh: 4.0; Vif TR-FRET: .; T cruzi repl: 9; AF4-AF9 inh: 0.6; Calb FLC: 12; Ecoli rRNA inh: .; Ecoli rRNA inh OD600: .; Ecoli rRNA inh RFP: .
Profile of Cc1ccc(-c2nc3ccccc3c(=O)n2CCCN2CCOCC2)cc1 : Beta apoptosis: .; Bfl-1 A1 inh: 0.3; RanGTP-Impb inh: -0.9; Vif TR-FRET: -1%; T cruzi repl: -3; AF4-AF9 inh: .; Calb FLC: -1; Ecoli rRNA inh: .; Ecoli rRNA inh OD600: .; Ecoli rRNA inh RFP: .

Screens from PubChem BioAssay.
